# Assay outcomes (PubChem BioAssay)
# Menin-MLL FL inh – inhibitors of human menin-MLL interaction, wild-type MLL peptide. Fluorescence polarization, fluorescein-MLL peptide displacement from menin. AID 1766. FP activity change, % at 61.4 µM. 290,000 tested, under 10 active; inconclusive = falling polarisation curve, or a change in total fluorescence; inactive = total fluorescence flat and polarisation flat or rising; no compound was filed as active; the % refers to the polarisation; negative = inhibition;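 further: % of control where 0% means no effect; inhibitors lower the polarisation; unlabelled MLL peptide was the positive control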
# Sfp inh – blocks B. subtilis Sfp PPTase activity; Q9F4F7; Biochemical Sfp PPTase activity, qHTS; Potency, µM, inactives show max response, negative = inhibition, hits mostly inhibitors; hit rate 3.5% among 310,000; active means well fitted inhibition curve with a large enough effect; inconclusive means small, poorly fitted or top-dose-only effect, or another doubt; inactive means no such curve, though single readings can be large or run the other way;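 further: the enzyme is Sfp with the accession as filed and its product quenches rhodamine fluorescence; potency means the concentration at half of the fitted maximal effect; 0% = enzyme reaction without inhibitor and -100% = no enzyme wells; top concentration of the series not given in the record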
#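 Buffer: 50 mM Hepes-Na pH 7.6, 10 mM MgCl2, 0.01% Nonidet P-40, 0.01% BSA. Enzyme 15 nM, pre-exposed to compound 15 min; substrates then added and fluorescence change tracked over 30 min.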
# gsp antag – antagonizes gsp, the McCune-Albright syndrome mutation; gsp-mutant cells, cAMP HTRF, 30 min; control for the full effect not named in the record; Potency, µM (titrated, usually from 76.9 µM), without a hit: at the top dose activity change, negative = inhibition, usual class: inhibitors; hit rate 0.4% among 340,000; active = falling curve of any shape with a large fitted effect; inconclusive = falling curve, mostly with a smaller effect; inactive = flat or rising curve; cell line not stated here;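 further: intracellular cAMP measured with PDE inhibitor Ro 20-1724 present during compound exposure; potency means the concentration at half of the fitted maximal effect; on the % scale 0 is the no-effect control and ±100 the full control effect; nearly all actives have a fitted effect of over 65% in size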
#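 Cells, 2000/well, grown 16–24 h in DMEM 10% FBS with 0.5 mg/ml G418, then compounds plus […] (300 uM addition stock), 30 min at 37C. cAMP read by HTRF (cAMP-d2 and anti-cAMP antibody-K in lysis buffer) after 30 min RT.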
# ClpP mod – qHTS Assay for Activators of ClpP; AID 651965, 2013; purified B. subtilis ClpP, FRET peptide cleavage, 20 min; hit rate 1.9% among 340,000; Potency, µM (titrated, usually from 57.5 µM), for the others: at the top dose activity change, negative = active; active = well fitted falling curve with a large enough effect; inconclusive = small, poorly fitted or top-dose-only effect; inactive = no such curve, though single readings can be large or run the other way; further: potency means the concentration at half of the fitted maximal effect; the source files actives as falling curves though it sought activators and does not explain the sign; nearly all actives have a fitted effect of over 65% in size; many hits overshoot -100%
# Target sequence (P80244 whole entry, looked up): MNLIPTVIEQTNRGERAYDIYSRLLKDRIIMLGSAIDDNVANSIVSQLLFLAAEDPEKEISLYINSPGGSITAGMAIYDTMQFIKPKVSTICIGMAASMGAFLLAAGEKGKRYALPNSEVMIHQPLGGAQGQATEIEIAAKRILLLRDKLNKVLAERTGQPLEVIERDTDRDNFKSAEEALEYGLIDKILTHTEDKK
#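 FRET quenching reversal measured ClpP activation: 10 microg/mL B. subtilis ClpP at pH 8 with the FRET-FV decapeptide, read at 430 nm after 320 nm excitation. The 20-min minus 0-min signal was scaled between DMSO/no-enzyme wells and ADEP (5.8 microM final).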
# TRPV1 potentiator – human TRPV1 potentiation; AID 540277; hit rate 0.02% among 320,000; potentiation, % at 8.33 µM; Q8NER1; TRPV1-expressing cells, Fluo-8 calcium influx, capsaicin EC20 potentiation; host cell line not named in the record; control for the full effect not named in the record; active means potentiation above 80%; inconclusive means 30% to 80%; inactive means below 30%; further: 0% is about no effect
# Target sequence (Q8NER1 whole entry, looked up): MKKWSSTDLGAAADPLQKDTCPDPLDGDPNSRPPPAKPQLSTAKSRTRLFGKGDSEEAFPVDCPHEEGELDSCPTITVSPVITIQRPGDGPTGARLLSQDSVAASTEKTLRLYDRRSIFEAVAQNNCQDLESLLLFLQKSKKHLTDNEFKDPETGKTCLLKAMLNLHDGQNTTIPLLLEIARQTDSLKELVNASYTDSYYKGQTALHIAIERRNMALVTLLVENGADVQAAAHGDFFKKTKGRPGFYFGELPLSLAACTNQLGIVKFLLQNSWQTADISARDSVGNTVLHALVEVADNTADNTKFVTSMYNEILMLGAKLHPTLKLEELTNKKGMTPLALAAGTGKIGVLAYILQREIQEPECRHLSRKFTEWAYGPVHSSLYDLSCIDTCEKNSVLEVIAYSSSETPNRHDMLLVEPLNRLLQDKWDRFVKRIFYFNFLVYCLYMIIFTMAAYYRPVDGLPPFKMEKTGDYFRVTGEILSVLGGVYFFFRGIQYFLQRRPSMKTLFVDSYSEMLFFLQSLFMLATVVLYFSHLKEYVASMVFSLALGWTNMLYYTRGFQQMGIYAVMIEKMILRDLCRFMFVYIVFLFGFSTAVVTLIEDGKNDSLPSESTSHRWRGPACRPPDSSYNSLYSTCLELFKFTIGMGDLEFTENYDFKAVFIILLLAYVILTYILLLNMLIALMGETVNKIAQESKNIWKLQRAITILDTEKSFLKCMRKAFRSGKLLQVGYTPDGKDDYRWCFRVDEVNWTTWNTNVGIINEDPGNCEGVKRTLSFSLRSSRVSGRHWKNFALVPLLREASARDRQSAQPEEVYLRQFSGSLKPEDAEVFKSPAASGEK
#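 TRPV1-expressing cells were cultured overnight at 35.5C and loaded with Fluo-8 calcium dye for 40 to 90 min at room temperature. After a 10 s baseline, compound was added and calcium influx was read kinetically for 3 min (ex 480/em 520 nm).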
# TRPML1 blocker – inhibitors of human TRPML1 channel. Q9GZU1. TRPML1-inducible cells, Ca2+ dye fluorescence, FDSS; active compounds read low; inhibition of EC80 agonist-evoked calcium signal. activity change, negative = inhibition, % (test concentration not listed). hit rate 0.02% among 390,000; in the data active means activity change below about -50%; inconclusive means about -30% to -50%; inactive means above about -30%;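 further: stimulus is agonist 54-4 at its EC80 concentration; on the % scale 0 is the no-effect control and ±100 the full control effect; compound concentration not given in the record; the text of the record puts the active cut at -80%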
#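 TRPML1-DL cells, Tet-induced overnight (~16 h, 37 °C) at 1,500 cells/well, were loaded with Ca8 no-wash dye plus quencher for 45-90 min at room temperature. Compounds were pinned during FDSS kinetic reading; agonist 54-4 at EC80 (4 uM final) then added.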
# gsp agonist – activates gsp, the McCune-Albright syndrome mutation; gsp mutant cells, cAMP HTRF, 30 min; control for the full effect not named in the record; Potency, µM (top dose mostly 76.9 µM), for the others: at the top dose activation (cAMP increase), most hits filed as activators; hit rate 0.13% among 340,000; active = well fitted activation curve with a large enough effect; inconclusive = small, poorly fitted or top-dose-only effect, or another doubt; inactive = no such curve, though single readings can be large or run the other way; cell line not stated here;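 further: phosphodiesterase inhibitor Ro 20-1724 added with compounds to block cAMP breakdown; potency means the concentration at half of the fitted maximal effect; nearly all actives have a fitted effect of over 60% in size; about a fifth of the inactives were tested at one dose only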
#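 Cells stably selected in G418 were plated at 2000/well, grown 16-24 hr, then given compounds in DMSO with the PDE inhibitor […] (300 uM solution added) for 30 min at 37C; cAMP was read by HTRF.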
# Active calls of the source: *; ? = inconclusive; . = not tested or not shown; & = joins results of further samples; [ ] = remark or other dose.
no.	smiles	TRPML1 blocker	gsp antag	TRPV1 potentiator	gsp agonist
1	COc1ccc(CN(C)C(=O)c2ccccc2Sc2ccccc2C#N)cc1OC	-14	-12%	0	-36%[inhibitor]
2	CCC(CO)N=CC1=C(O)CC(c2ccccc2)CC1=O (stereo not given)	5	7%	2	25%[15.4 µM]
3	O=C(NCC(=O)N1CCCCCCC1)c1ccc(Cl)cc1	0	7%	-12	?
4	Cc1cccc(NCC(O)Cn2cnc3c2c(=O)n(C)c(=O)n3C)c1 (stereo not given)	-2	19%	-1	?
5	Cc1csc(C(=O)O)c1-c1c(C)csc1C(=O)O	-1	10%	5	4%
6	CC(C)CNS(=O)(=O)c1ccc(CCC(=O)N2CCC(C(N)=O)CC2)cc1	-16	8%	11	-6%
7	Cc1cccc(NC(=O)c2onc3c2CCCC3)n1	28	4%	-7	1%
8	O=C(Nc1ccc([N+](=O)[O-])cn1)C1CCCCC1	11	19%	-2	?

no.	Sfp inh	Menin-MLL FL inh	ClpP mod
1	5%	.	0.1%
2	18%	0.6	-0.8%
3	.	.	-0.8%
4	12%	-1.9	0.0%
5	16%	2.7	-7.1%
6	15%	-2.2	-3.0%
7	-9%	1.7	-0.8%
8	-1%	-0.8	-1.1%

# Continuation.
no.	smiles	TRPML1 blocker	gsp antag	TRPV1 potentiator	gsp agonist
9	COc1ccccc1NS(=O)(=O)c1cc(NC(=O)CNC(=O)c2ccccc2)ccc1C	-20	?	18	3%
10	COc1cccc(NC(=O)CN(C)C(=O)c2cc3c(s2)CCCC3)c1	9	-4%	-14	-4%
11	CC1(c2nnc(-c3ccc(F)cc3)o2)CC(c2ccc([N+](=O)[O-])cc2)=NO1 (stereo not given)	-13	-3%	21	.
12	O=C(CSCc1ccccc1)N1CCN(Cc2ccc3c(c2)OCO3)CC1	12	-13%	-48	0%
13	CCCCn1c(SCC(N)=O)nc2sc3c(c2c1=O)CCC3	1	-23%	-12	-32%[inhibitor]
14	CCN1CCN(Cc2nc3ccc([N+](=O)[O-])cc3c(=O)n2-c2ccc(OC)cc2OC)CC1	33	-1%	-2	-4%
15	COCc1cc(C)nc(Nc2cc(C)ccc2C)c1C#N	-2	-9%	-22	-9%
16	CCCN(CC(=O)Nc1ccccc1C)C(=O)c1ccc(S(=O)(=O)N2CCCC2)cc1	6	-7%	-10	-2%

no.	Sfp inh	Menin-MLL FL inh	ClpP mod
9	4%	3.7	-10%
10	.	.	-4.8%
11	-1%	5.3	-1.4%
12	-8%	1.4	1.4%
13	18%	0.5	-1.4%
14	-4%	-5.2	.
15	9%	2.0	-12%
16	.	.	0.5%

# (list continues)
no.	smiles	TRPML1 blocker	gsp antag	TRPV1 potentiator	gsp agonist
17	Cc1cc(C)c(NC(=O)CS(=O)CC(=O)NC2CCCc3ccccc32)c(C)c1 (stereo not given)	-6	-9%	6	9%
18	Cc1ccccc1S(=O)(=O)Nc1ncnc2sccc12	-8	2%	18	19%
19	Cc1cc(N)c(-n2cc3c(=O)n(C)c(=O)n(C)c3c2)cc1C	22	-6%[15.4 µM]	-2	21%
20	C#C[C@]1(O)CC[C@H]2[C@@H]3CCc4cc(OC)ccc4[C@H]3CC[C@@]21C	88	-5%	1	.
21	COc1ccc(Cn2nnnc2C(C(C)C)N2CCN(c3ccccc3OC)CC2)cc1 (stereo not given)	10	-7%	-6	?
22	CCCC(=O)Nc1ccc(C(=O)N/N=C/c2ccc([N+](=O)[O-])o2)cc1	15	6%	-5	25%
23	Cc1ccc(-c2nc(SCC(=O)Nc3cc(C)on3)c3c(=O)n(C)c(=O)n(C)c3n2)cc1	-22&1	-2%	18	?
24	Cc1cc(C)c(NC(=O)C2CCN(C(=O)c3ccco3)CC2)c(C)c1	10	-12%	-1	14%[15.4 µM]

no.	Sfp inh	Menin-MLL FL inh	ClpP mod
17	8%	1.1	-0.9%
18	.	.	-3.5%
19	-5%	7.6	-15%
20	20%&8%	1.4&1.6	4.9%
21	8%	-4.4	0.5%
22	-26%	10	32µM*
23	6%	.	-2.2%&-0.4%
24	12%	-5.3	.

# The list goes on:
no.	smiles	TRPML1 blocker	gsp antag	TRPV1 potentiator	gsp agonist
25	CC(=O)Nc1sc2c(c1C(c1ccccc1)N1CCOCC1)CCCC2 (stereo not given)	-6	-3%	-2	8%[15.4 µM]
26	Cc1cc(C)n(C(=O)CNC(=O)c2ccccc2F)n1	4	11%	0	10%
27	CN1CC(=O)N(CC(=O)Nc2ccc3c(c2)CCC3)C1=O	-18	12%	0	13%[15.4 µM]
28	O=C(COC(=O)CCOc1ccccc1)Nc1cc(S(=O)(=O)N2CCCCC2)ccc1Cl	10	4%	7	?
29	O=C(CSCc1ccccc1Br)N/N=C/c1ccc(OCC(=O)N2CCCCC2)cc1	20	4%	5	3%
30	O=C(c1cccs1)N1CCN(S(=O)(=O)c2cccc(Cl)c2Cl)CC1	-14	-2%	-8	2%
31	COC(=O)c1ccc(CN2C(=O)c3ccccc3C2=O)o1	-20	5%	13	12%
32	Cc1ccccc1C(=O)NCC(C)NC(=O)c1ccccc1C (stereo not given)	-8	11%	.	19%[15.4 µM]

no.	Sfp inh	Menin-MLL FL inh	ClpP mod
25	1%	3.1	-0.8%
26	14%	-3.3	1.2%
27	9%	0.0	.
28	.	.	-3.5%
29	12%	3.1	-26%
30	.	.	-3.8%
31	6%	0.1	.
32	.	.	0.3%

# New compounds follow
no.	smiles	TRPML1 blocker	gsp antag	TRPV1 potentiator	gsp agonist
33	Cc1oc(CC(C)C)cc1C(N)=O	-8	.	-8	9%[15.4 µM]
34	CC(C)n1c(SCC(=O)NC2CC2)nnc1-c1ccco1	-4	13%	-3	?
35	O=C1CC(Nc2ccccc2)C(=O)N1Cc1ccccc1 (stereo not given)	-11	-5%	-9	-18%
36	COc1ccc(NC(=O)CNS(=O)(=O)c2ccc(Cl)cc2)cc1OC	20	4%	4	25%
37	CCOC(=O)c1cnc(N2CCOCC2)[nH]c1=O	23	6%	-9	3%
38	Cc1nc2cc(NS(=O)(=O)c3cccc(F)c3)ccc2s1	3	2%	4	0%
39	O=C(NCCN1CCCC1)c1cccc(Cl)c1	3	-2%	-1	-1%[15.4 µM]
40	Cc1ccc(NC(=O)O/N=C/c2ccc(N(C)C)cc2)cc1	-12	-9%	6	7%[15.4 µM]

no.	Sfp inh	Menin-MLL FL inh	ClpP mod
33	-5%	1.8	.
34	10%	.	0.8%
35	10%	2.2	-0.2%
36	18%	0.9	-1.4%
37	-14%	0.9	-1.3%
38	13%	23	.
39	20%	1.8	.
40	-4%	-0.6	-1.7%

# Molecules shown so far that have a cyano group, in the order listed:
no.	smiles	TRPML1 blocker	gsp antag	TRPV1 potentiator	gsp agonist
1	COc1ccc(CN(C)C(=O)c2ccccc2Sc2ccccc2C#N)cc1OC	-14	-12%	0	-36%[inhibitor]
15	COCc1cc(C)nc(Nc2cc(C)ccc2C)c1C#N	-2	-9%	-22	-9%

no.	Sfp inh	Menin-MLL FL inh	ClpP mod
1	5%	.	0.1%
15	9%	2.0	-12%

# Remaining list, next part:
no.	smiles	TRPML1 blocker	gsp antag	TRPV1 potentiator	gsp agonist
41	Cc1ccc(-c2onc(C)c2C)cc1S(=O)(=O)N1CC(C)Oc2ccccc21 (stereo not given)	27	-19%	7	6%
42	COC(=O)c1ccc(-c2c(-c3ccccc3)ncc3cc(F)ccc23)cc1	11	-22%	3	-11%
43	O=C(CCSc1nnc(-c2ccncc2)o1)Nc1ccccc1	10	17%	26	6%
44	O=C(NN1CCOCC1)c1cccc(F)c1	11	6%	.	15%
45	COc1ccc(C(=O)/C=C/N(C)C)cc1	8	-4%	?	-21%
46	CCCCCN(C(=O)CCCSc1nncs1)c1c(N)n(CCCC)c(=O)[nH]c1=O	28	11%	-2	-21%
47	CCOC(=O)N1CCN(C(=S)NC(=O)c2ccnn2C)CC1	35	-8%	9	4%[15.4 µM]
48	COc1ccc(-c2coc3c(C)c4oc(=O)c(CCC(=O)O)c(C)c4cc23)cc1	-9	?	-55	0%[15.4 µM]

no.	Sfp inh	Menin-MLL FL inh	ClpP mod
41	-4%	.	-1.2%
42	.	.	?
43	11%	0.0	-1.9%
44	.	.	0.0%
45	-11%	-0.4	-1.2%
46	11%	1.3	0.3%
47	?	4.8	2.1%
48	-15%	1.0	-0.3%

# Single records, as listed above. Values in the order: TRPML1 blocker | gsp antag | TRPV1 potentiator | gsp agonist | Sfp inh | Menin-MLL FL inh | ClpP mod
# CCCCCN(C(=O)CCCSc1nncs1)c1c(N)n(CCCC)c(=O)[nH]c1=O reads 28 | 11% | -2 | -21% | 11% | 1.3 | 0.3%
# O=C(CSCc1ccccc1Br)N/N=C/c1ccc(OCC(=O)N2CCCCC2)cc1 reads 20 | 4% | 5 | 3% | 12% | 3.1 | -26%
# Cc1ccc(-c2nc(SCC(=O)Nc3cc(C)on3)c3c(=O)n(C)c(=O)n(C)c3n2)cc1 reads -22&1 | -2% | 18 | ? | 6% | . | -2.2%&-0.4%

# Next section.
no.	smiles	TRPML1 blocker	gsp antag	TRPV1 potentiator	gsp agonist
49	O=C(O)CNS(=O)(=O)c1ccc2c(c1)C(=O)c1cc(S(=O)(=O)NCC(=O)O)ccc1-2	-4	3%	-8	13µM*
50	CC1(C)OC(c2ccccc2)=C/C(=C/C=Nc2ccccc2)O1	-6	-14%	2	-15%
51	CCCCNc1nc2c(c(=O)[nH]c(=O)n2C)n1CCCc1ccccc1	21	.	.	-95%[inhibitor]
52	Cc1ccc(S(=O)(=O)c2c(C)nn(C(C)(C)C)c2OC(=O)c2ccco2)cc1	19	7%	-11	7%

no.	Sfp inh	Menin-MLL FL inh	ClpP mod
49	-10%	-0.3	-2.6%
50	2%	11	0.0%
51	.	.	-1.2%
52	?	1.1	-1.5%
